Bioassay records (PubChem)
KCNQ2 pot – KCNQ2 (rat) channel potentiation; hit rate 0.54% among 310,000; O88943; B-score at 10 µM; AID 2239; CHO-K1 KCNQ2, FluxOR thallium flux fluorescence; stronger effect = higher value;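 active means fluorescence ratio B-score at least 3 SD of library B-scores, with initial fluorescence B-score within 3 SD, cut at about 5.3 in these data; same plate scores as AID 2156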;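 further: B-score of peak minus minimum over baseline fluorescence ratio after K+ and Tl+ stimulus; positive B-score means potentiation of KCNQ2 with more thallium influx and brighter signal; only the inactives scoring about 0 or higher are listed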
Target sequence (O88943 whole entry, looked up): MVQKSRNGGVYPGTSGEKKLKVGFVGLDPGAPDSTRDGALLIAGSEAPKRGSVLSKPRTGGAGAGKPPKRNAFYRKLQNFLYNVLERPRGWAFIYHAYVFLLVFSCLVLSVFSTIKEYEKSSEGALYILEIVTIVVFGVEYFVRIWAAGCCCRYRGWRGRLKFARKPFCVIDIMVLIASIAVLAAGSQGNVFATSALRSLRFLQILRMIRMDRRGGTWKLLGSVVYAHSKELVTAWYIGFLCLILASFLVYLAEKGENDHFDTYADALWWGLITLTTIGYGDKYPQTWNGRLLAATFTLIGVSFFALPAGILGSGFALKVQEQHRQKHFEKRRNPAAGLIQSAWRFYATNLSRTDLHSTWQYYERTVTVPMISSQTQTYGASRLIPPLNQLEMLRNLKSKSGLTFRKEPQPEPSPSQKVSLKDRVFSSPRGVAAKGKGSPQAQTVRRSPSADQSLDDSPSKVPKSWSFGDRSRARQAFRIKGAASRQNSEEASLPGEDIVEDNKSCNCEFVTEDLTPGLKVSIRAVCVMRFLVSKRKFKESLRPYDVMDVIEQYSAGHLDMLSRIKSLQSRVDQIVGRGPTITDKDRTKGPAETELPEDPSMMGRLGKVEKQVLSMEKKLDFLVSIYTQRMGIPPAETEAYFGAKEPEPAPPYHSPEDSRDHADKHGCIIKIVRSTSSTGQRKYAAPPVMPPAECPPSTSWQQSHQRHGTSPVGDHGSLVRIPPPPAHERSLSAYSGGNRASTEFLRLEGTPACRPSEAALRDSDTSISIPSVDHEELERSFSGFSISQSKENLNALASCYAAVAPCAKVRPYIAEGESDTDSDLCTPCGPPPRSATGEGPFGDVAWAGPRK
KCNQ2 pot baseline – second read-out of KCNQ2 pot, no call of its own (marks repeat the call); B-score; compound at 10 µM; measured here: initial fluorescence intensity artifact check;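 brightness before thallium and not channel activity; 0 = typical well and far values either way flag optical interference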
Active calls of the source: *; / = not tested or not shown. The list is partial, so the mix of outcomes need not match the whole.

smiles	KCNQ2 pot	KCNQ2 pot baseline
O=C(Nc1ccc(Cl)cc1)Nc1cc(S(=O)(=O)N2CCOCC2)ccc1N1CCCC1	0.84	1.4
O=[N+]([O-])c1cc(-c2csc(NCCc3nc4cc(Cl)c(N5CCCCC5)cc4n3CCCO)n2)ccc1Cl	0.01	0.24
CC[C@H](C)[C@H](NC(N)=O)C(=O)OCC(=O)NCc1ccc(Cl)cc1	0.14	0
COc1ccc(/C=C/C2=NNC(=O)CC2)cc1	1.4	0.5
O=c1[nH]c(Cc2ccccc2)nc2scc(-c3ccccc3)c12	0.06	-0.08
Cc1cc(C)n(-c2ccc(C(=O)OCC(=O)Nc3ccc([N+](=O)[O-])cc3)cc2)n1	0.66	-1.6
CN(CC1COc2ccccc2O1)C(=O)c1ccc(N(C)C)cc1 (stereo not given)	0.49	-1.7
Cc1ccc(NC(=O)C2CCCN2C(=O)NC2CCCCC2)cc1C (stereo not given)	0.42	-0.56
NC(=O)CSc1nc2c(sc3ccccc32)c(=O)n1CCCN1CCOCC1	1.9	-2
Cc1csc(Sc2ccc(C(=O)OCC(=O)Nc3ccc(OC(F)(F)F)cc3)cc2[N+](=O)[O-])n1	1.1	-1.1
O=C(NC1CCCC1)c1cc(-c2cccs2)on1	0.38	1.9
CC(Sc1n[nH]c(=O)n1Cc1ccccc1)C(=O)NC1CCCCC1C (stereo not given)	0.03	1.5
CCCCNC(=O)CC(C(=O)N1CCc2ccccc21)n1ccnc1 (stereo not given)	1.9	2.5
CCOC(=O)N1CCN(C(=O)CSC2=NS(=O)(=O)c3ccccc3N2)CC1	1.2	-0.9
COC(=O)c1c(C)[nH]c(C)c1-c1ccc(C)cc1	0.14	1.7
CCN1C(=O)N[C@H](c2ccccc2)C(C(C)=O)=C1C	2	-0.37
O=C(CSc1ncn(-c2ccccc2)n1)N1CCN(c2ccccc2)CC1	0.54	0.87
Cc1onc(-c2ccccc2Cl)c1C(=O)N1CCOC12CCCCC2	0.42	-0.55
COc1ccc(N)cc1S(=O)(=O)Nc1ccccc1Cl	0.03	0.55
COc1cccc(NC(=O)C(=O)NCCC2CCCCN2S(=O)(=O)c2ccccc2)c1 (stereo not given)	0.01	0.54
O=C(Nc1nc2ccc(C(=O)N3CCCCC3)cc2s1)C1CCCCC1	0.42	1.6
Cc1ccnn1CCC(=O)N1CCCC(CCC(=O)NCc2ccccc2F)C1 (stereo not given)	0.46	-0.48
Cc1cc(Nc2ccccc2Cl)c2ccccc2n1	2.8	-1.3
C[C@H](NC(=O)c1ccco1)C(=O)N1CCCC1	2.2	0.83
CC(C)(C)NC(=O)C(c1ccncc1)N(Cc1cccs1)C(=O)c1csnn1 (stereo not given)	0.88	1.7
Cc1ccc(OCC(=O)N/N=C\c2cccs2)c([N+](=O)[O-])c1	1.4	-0.67
CCC(C)[C@@H]1NC(=O)N(CCCN2CCCC2=O)C1=O (stereo not given in full)	1.6	-1.1
CC(C)(C)NC(=O)c1cccc(NC(=O)CSc2ccccc2)c1	1.6	-1.2
CCC(CC)c1nnc(NC(=O)CS(=O)(=O)c2ccccc2)s1	1.3	0.02
Cc1ccc(NC(=O)CCC(=O)N2CCOCC2)nc1	0.3	3
CCCCN1C(=S)NC[C@@H]1C(C)CC (stereo not given in full)	0.79	0.09
O=C(NCc1ccc2c(c1)OCO2)C(=O)NCC1OCCN1S(=O)(=O)c1ccccc1 (stereo not given)	0.7	-1.2
CN(C)c1ccc(S(=O)(=O)c2ccc(Cl)cc2)cc1	1.2	-2.4
COc1ccccc1NC(=S)N1CCN(Cc2ccc3c(c2)OCO3)CC1	0.13	2.2
OCCNCc1cc(Br)ccc1OCc1ccc(Cl)cc1	0.2	-0.45
COc1ccc(N2C(=S)NC(C)(C)CC2(C)c2ccc(OC(C)=O)cc2OC(C)=O)cc1 (stereo not given)	0.44	-0.62
Cc1cc(-c2ccc(S(=O)(=O)Nc3ccc(C#N)cc3)s2)on1	1	0.99
Cc1c(CNC(=O)c2cnn3c2NC(c2ccc(Br)cc2)CC3C(F)(F)F)cnn1C (stereo not given)	1.4	2.5
COc1ccc(/C=N/NC(=O)c2cc(C34CC5CC(CC(C5)C3)C4)[nH]n2)cc1OC	1.2	-1.6
O=c1[nH]n(-c2cccc(Cl)c2)c2ncccc12	1.1	-0.17
CCn1c(=O)[nH]c2cc(C(=O)N3CCN(c4ccccc4)CC3)ccc2c1=O	0.74	0.48
S=C(Nc1ccc(Br)cc1)NC1CCCC1	2.3	-1.5
N#CC1=C(N)Oc2ccccc2C12C(=O)Nc1n[nH]c(-c3ccccc3)c12 (stereo not given)	0.71	-1.6
COC(=O)COc1ccc2c(=O)c(Oc3ccccc3Br)coc2c1	0.95	-1.4
CC(=O)N1CCc2c(sc3c2c(=O)n(-c2ccccc2)c(=O)n3CC(=O)NCC2CCCO2)C1 (stereo not given)	0.62	-1.2
O=C1CCC(C(=O)N2CCCCO2)CN1Cc1ccc(Cl)cc1 (stereo not given)	2	-1.5
O=c1cc(C(O)C[N+](=O)[O-])occ1OCc1ccccc1 (stereo not given)	0.75	-0.46
CCOC(=O)c1sc2nc(C)n(CC(=O)NCC3CCCO3)c(=O)c2c1C (stereo not given)	0.81	0.82
Cc1cc(N2CCOCC2)c2c(N)cc(C)c(C)c2n1	0.44	-0.19
Cc1ccccc1OCC(=O)Nc1cccc(S(=O)(=O)NC2=NCCCCC2)c1	2.1	-0.67
CC(C(=O)Nc1ccc(O)cc1)c1cccc(C(=O)c2ccccc2)c1 (stereo not given)	0.64	-0.1
CCCc1nn(C)c(C(=O)Nc2ccccc2)c1Cl	0.86	-0.59
CNC(=S)N1CCN(c2ccc(OC)cc2)CC1	1.7	-1.6
CCCN(CCC)C(=O)c1cc(S(=O)(=O)N2CCCCC2)c[nH]1	1	0.17
CCN(CC)c1nc2ccccc2[nH]c1=O	0.01	3.4
Cc1cc(C)cc(CN2C(=O)NC3(CCCCCC3)C2=O)c1	0.03	-1.9
Cc1ccc2c(c1)C(c1ccc(F)cc1)N(C(=O)C1CC1)CC(=O)N2 (stereo not given)	0.83	-1.1
C=CC[C@H]1CC(C)=C[C@H](CC=C)N1C(=O)c1cc(COc2ccccc2SC)on1	-5.6	/
O=S(=O)(NCc1cc(-c2ccccc2Cl)no1)c1ccccc1	0.73	-0.88
CSCCC(NS(=O)(=O)c1ccc(C)cc1)C(=O)N1CCCC1 (stereo not given)	0.79	-3

(continued)
smiles	KCNQ2 pot	KCNQ2 pot baseline
Cc1ccccc1OCC(=O)NCC(=O)OCC(=O)c1ccc([N+](=O)[O-])cc1	0.52	-0.5
COc1ccc(NC(=O)Nc2nccs2)cc1	1.4	-1.5
Cc1ccccc1NS(=O)(=O)c1ccc(C(=O)NCC(c2ccccc2)N(C)C)cc1 (stereo not given)	0.59	1.3
CC(C)Cn1c(N2CCN(CC(=O)Nc3ccc(Cl)cc3)CC2)nc2ccccc21	0.03	0.6
O=C(OCC(=O)c1ccc(Cl)cc1Cl)c1ccc2c(c1)C(=O)N(c1cccc3ncccc13)C2=O	0.52	-1.8
CC(=N)C1=C(O)CC(C)(C)CC1=O	0.34	-0.54
COc1cccc(/C=C2/NC(=O)NC2=O)c1OCC(=O)Nc1ccccc1	0.52	-0.56
Cc1ccc(S(=O)(=O)N2CC3(C)CN(S(=O)(=O)c4ccc(C)cc4)CC(C)(C2)C3)cc1	0.15	0
O=[N+]([O-])c1ccc(/C=N/Nc2ccc3ccccc3c2)o1	0.02	-0.36
Cc1cc(C)nc(N(C#N)S(=O)(=O)c2ccccc2Cl)n1	0.98	-0.04
O=C(Nc1ncc([N+](=O)[O-])s1)c1ccc2c(c1)OCO2	0.03	0.94
C=CCNC(=O)c1ccccc1NC(=O)C1CC(=O)N(C(C)C)C1 (stereo not given)	0.14	-3.1
O=C(c1ccc2c3n(nc2c1)-c1ccccc1CO3)N1CCOCC1	1.4	0.8
COc1ccc(-n2nc(C)c3sc(C)nc3c2=O)cc1	0.43	0.01
OC(CN1CCOCC1)C12CC3CC(CC(C3)C1)C2 (stereo not given)	3.3	-0.32
c1ccc2c(c1)cnc1ccccc12	0.01	/
CC(=O)OCC(=O)Nc1ccccc1C	0.44	0.88
S=C(NCC1CCCO1)Nc1ccc(Cl)c(Cl)c1 (stereo not given)	2.1	-0.02
Cc1nc(SCc2ccccc2)c2oc3ccccc3c2n1	0.51	-0.99
Cc1c(Cl)c([N+](=O)[O-])nn1Cc1ccc(C(=O)Nc2ccc(Cl)cn2)o1	0.21	-0.3
CN(c1ccc(F)cc1)S(=O)(=O)c1ccc(Cl)c(C(=O)Nc2ccncc2)c1	0.38	-0.55
Cc1nc(C)c(C(=O)Nc2cccc(C)c2C)o1	0.95	1.1
CCN(CC)CCOc1ncnc2c1oc1ccccc12	0.08	0.33
CC(Cl)C(=O)c1ccc2c(c1)CCN2C(=O)C1CC1 (stereo not given)	0.8	-1.6
O=C(CN1C(=O)NC2(CCCCC2)C1=O)N1CCN(S(=O)(=O)c2cccc(F)c2)CC1	1.5	1.8
CN(C)CC#CCC(O)(c1ccccc1)C1CCCCC1 (stereo not given)	0.6	1.1
CCc1c(C)sc(NC(=O)c2ccco2)c1C(=O)N1CCOCC1	0.14	-0.66
COc1ccc(NC(=O)COC(=O)CCCN2C(=O)c3ccccc3C2=O)cc1Cl	1.9	-0.69
Cc1ccc(NC(=O)CSc2nnc(CCC(=O)O)c(=O)[nH]2)cc1	0.16	2.4
COc1ccc(C2C(CC(=O)O)=C(Nc3ccccc3)C(=O)N2c2ccccc2)cc1 (stereo not given)	0.45	0.11

Three entries from above, as labelled records:
COc1ccc(NC(=O)Nc2nccs2)cc1
  KCNQ2 pot: 1.4; KCNQ2 pot baseline: -1.5

Cc1ccccc1NS(=O)(=O)c1ccc(C(=O)NCC(c2ccccc2)N(C)C)cc1 (stereo not given)
  KCNQ2 pot: 0.59; KCNQ2 pot baseline: 1.3

CC(C)Cn1c(N2CCN(CC(=O)Nc3ccc(Cl)cc3)CC2)nc2ccccc21
  KCNQ2 pot: 0.03; KCNQ2 pot baseline: 0.6

Among those listed so far, these have fluorine:
smiles	KCNQ2 pot	KCNQ2 pot baseline
Cc1csc(Sc2ccc(C(=O)OCC(=O)Nc3ccc(OC(F)(F)F)cc3)cc2[N+](=O)[O-])n1	1.1	-1.1
Cc1ccnn1CCC(=O)N1CCCC(CCC(=O)NCc2ccccc2F)C1 (stereo not given)	0.46	-0.48
Cc1c(CNC(=O)c2cnn3c2NC(c2ccc(Br)cc2)CC3C(F)(F)F)cnn1C (stereo not given)	1.4	2.5
Cc1ccc2c(c1)C(c1ccc(F)cc1)N(C(=O)C1CC1)CC(=O)N2 (stereo not given)	0.83	-1.1
CN(c1ccc(F)cc1)S(=O)(=O)c1ccc(Cl)c(C(=O)Nc2ccncc2)c1	0.38	-0.55
O=C(CN1C(=O)NC2(CCCCC2)C1=O)N1CCN(S(=O)(=O)c2cccc(F)c2)CC1	1.5	1.8

Other structures follow:
smiles	KCNQ2 pot	KCNQ2 pot baseline
CC(=O)Nc1ccc(NC(=O)COc2cc(C)cc3oc(=O)cc(C)c23)cc1	0.13	0.11
Cc1ccc(SCc2nnc(N)s2)cc1	0.42	1.8
CS(=O)(=O)Nc1ccc(-c2cc(/C=C3\SC(N)=NC3=O)c[nH]c2=O)cc1	0.63	-0.54
CCCCSc1nc(N)c(NC(=O)c2ccco2)c(=O)[nH]1	0.33	-1.9
CCN1CCN(C(c2ccc(OC)c(OC)c2)c2nnnn2C(C)(C)C)CC1 (stereo not given)	0.86	0.06
CCc1cccc(CC)c1NC(=O)c1ccccc1	1.3	-0.42
CC1CCCCC1NC(=O)CN1C(=O)COc2ccccc21 (stereo not given)	0.87	-1.1
COc1ccc2c(C)cc(SCC(=O)Nc3ccc(Cl)cn3)nc2c1	0.55	0.02
CCC(C(=O)OC)(C(=O)OC)c1ccc([N+](=O)[O-])cc1	0.02	-0.39
CCc1nnc(NC(=O)c2sc3nc4c(cc3c2N)CCCCC4)s1	1.5	-0.41
Cc1nn(-c2ccccc2)c2sc(C(=O)N3CCOCC3)cc12	0.39	1.4
COCCCn1c(=O)c2sccc2n(Cc2ccccc2C)c1=O	0.05	-0.05
Cc1cc(NC(=O)c2ccc(-c3ccccc3F)o2)no1	0.01	1.6
Clc1ccc(-c2nc(-c3ccccn3)no2)cc1Cl	0.01	1.5
Cc1cc(C)c(S(=O)(=O)NCC(=O)O)cc1C	0.17	-0.8
CC(=O)NC1=NN(C(C)=O)C(C)(c2ccc(C)cc2)S1 (stereo not given)	0.22	0.75
Fc1cccc(Nc2cc(-n3cccn3)ncn2)c1	1.8	0.83
CC(C)(CO)NCc1cc(Br)ccc1OCc1ccccc1	1.4	1.5
Cn1cccc1/C=N/NC(=O)c1ccc(OC(F)(F)C(F)F)cc1	0.59	0.13
NNC(=O)C(Cc1ccccc1)NC(=O)OCc1ccccc1 (stereo not given)	0.72	-0.38
CCNc1nc(NCC)nc(N(C)n2cnnc2)n1	0.54	-0.83
COc1ccc(/C(C)=N/NC(=O)CNC(=O)c2ccco2)c(OC)c1	0.99	0.54
COCCOC(=O)c1c(NC(=O)CN2c3ccccc3CC2C)sc(C(N)=O)c1C (stereo not given)	1.4	-1.2
O=C(NC(=S)Nc1nc(-c2ccccc2)cs1)c1cncc(Br)c1	2.2	-1.8
COc1ccc(Nc2nc3ccccc3n3cnnc23)cc1Cl	0.47	0.29
COC(=O)CSc1nc(N2CCOCC2)c2c(c1C#N)CCCC2	0.03	0.15
Cc1ccccc1Nc1nnc(SCC(=O)N(C)C2CCS(=O)(=O)C2)s1 (stereo not given)	0.01	0.67
